# gsp ag – agonists of gsp mutant (McCune-Albright syndrome); 340,000 tested, 0.13% active; Potency, µM (top dose mostly 76.9 µM), for the others: at the top dose activation (cAMP increase), actives largely listed as activators; gsp mutant cells, cAMP HTRF, 30 min; control for the full effect not named in the record; active = well fitted activation curve with a large enough effect; inconclusive = small, poorly fitted or top-dose-only effect, or another doubt; inactive = no such curve, though single readings can be large or run the other way; cell line not stated here;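 note: phosphodiesterase inhibitor Ro 20-1724 added with compounds to block cAMP breakdown; potency is the fitted concentration of half-maximal effect; nearly all actives have a fitted effect of over 60% in size; about a fifth of the inactives were tested at one dose only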
#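 Cells stably selected in G418 were plated at 2000/well, grown 16-24 hr, then given compounds in DMSO with the PDE inhibitor […] (300 uM solution added) for 30 min at 37C; cAMP was read by HTRF.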
# gsp antag – antagonists of gsp mutant (McCune-Albright syndrome). gsp-mutant cells, cAMP HTRF, 30 min; control for the full effect not named in the record. Potency, µM (highest dose often 76.9 µM), for inactives: at the highest dose activity change, negative = inhibition, most hits filed as inhibitors. 340,000 tested, 0.4% active; active = falling curve of any shape with a large fitted effect; inconclusive = falling curve, mostly with a smaller effect; inactive = flat or rising curve; cell line not stated here;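 note: intracellular cAMP measured with PDE inhibitor Ro 20-1724 present during compound exposure; potency is the fitted concentration of half-maximal effect; % is set by controls: 0 for no effect and ±100 for the full control effect; nearly all actives have a fitted effect of over 65% in size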
#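 Measurement of cellular cAMP by homogeneous time-resolved fluorescence following a 30 min compound exposure at 37C. The PDE inhibitor […] was present throughout; the assay buffer was DPBS with 0.05% BSA and 0.005% Tween 20.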
# ClpP mod – qHTS Assay for Activators of ClpP; 340,000 tested, 1.9% active; ATP-dependent Clp protease proteolytic subunit (Bacillus subtilis (strain 168)), P80244; Potency, µM (series often up to 57.5 µM), without a hit: at the top dose activity change, negative = active; purified B. subtilis ClpP, FRET peptide cleavage, 20 min; active = well fitted falling curve with a large enough effect; inconclusive = small, poorly fitted or top-dose-only effect; inactive = no such curve, though single readings can be large or run the other way; note: potency is the fitted concentration of half-maximal effect; the source files actives as falling curves though it sought activators and does not explain the sign; nearly all actives have a fitted effect of over 65% in size; many hits overshoot -100%
# Target sequence (P80244 whole entry, looked up): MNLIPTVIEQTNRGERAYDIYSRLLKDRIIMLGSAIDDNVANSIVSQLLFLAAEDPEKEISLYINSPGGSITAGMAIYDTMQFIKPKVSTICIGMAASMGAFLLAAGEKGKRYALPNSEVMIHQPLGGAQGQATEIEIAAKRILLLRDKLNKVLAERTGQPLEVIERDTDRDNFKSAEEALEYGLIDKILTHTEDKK
#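 ClpP 10 microg/mL final, pH 8 Tris/KCl buffer with BSA, glycerol, Tween-20; compound pinned in; FRET-FV substrate; RT 20 min; Ex320/Em430; ΔFRET vs ADEP 5.8 microM, DMSO, no enzyme.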
# TRPML1 agonist – agonists of human TRPML1 channel | 410,000 tested, 0.12% active | TRPML1-expressing cells, Ca2+ dye fluorescence, FDSS; host cell line not named in the record; reference of the full effect not given here | activation, % (test concentration not listed) | Q9GZU1; in the data active = activation above about 50%; inconclusive = about 30% to 50%; inactive = below about 30%; note: 0% is about no effect; the text of the record puts the active cut at 80%
# Target sequence (Q9GZU1 whole entry, looked up): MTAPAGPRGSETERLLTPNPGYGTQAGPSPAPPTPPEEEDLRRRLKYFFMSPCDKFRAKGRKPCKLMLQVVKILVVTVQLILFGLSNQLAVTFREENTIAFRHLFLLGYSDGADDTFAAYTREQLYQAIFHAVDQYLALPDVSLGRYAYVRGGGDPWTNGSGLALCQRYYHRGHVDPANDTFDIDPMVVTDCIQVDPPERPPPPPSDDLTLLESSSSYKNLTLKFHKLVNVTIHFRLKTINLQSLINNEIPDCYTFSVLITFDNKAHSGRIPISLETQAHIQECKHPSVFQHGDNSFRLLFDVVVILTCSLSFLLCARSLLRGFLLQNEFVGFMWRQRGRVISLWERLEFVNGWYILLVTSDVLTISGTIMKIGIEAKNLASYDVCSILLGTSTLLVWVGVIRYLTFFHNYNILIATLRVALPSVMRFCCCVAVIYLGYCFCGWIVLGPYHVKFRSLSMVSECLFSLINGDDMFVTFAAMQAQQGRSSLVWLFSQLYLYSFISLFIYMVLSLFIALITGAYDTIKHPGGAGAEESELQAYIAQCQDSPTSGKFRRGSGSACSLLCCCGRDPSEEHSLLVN
#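 Cells: TRPML1-DL, 1X Tet inducer, ~16 h at 37 degrees C/5% CO2. Dye: ABD Ca8 no-wash + quencher, 45-90 min RT. Read: 10 s baseline, compound add, 110 s agonist phase; 54-4 EC80 (4uM final), 110 s antagonist phase.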
# Menin-MLL FL inh – displaces fluorescein MLL peptide from human menin; 290,000 tested, under 10 active; Fluorescence polarization, fluorescein-MLL peptide displacement from menin; AID 1766; FP activity change, % at 61.4 µM; inconclusive = falling polarisation curve, or a change in total fluorescence; inactive = total fluorescence flat and polarisation flat or rising; no compound was filed as active; the % refers to the polarisation; negative = inhibition;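 note: % of control where 0% means no effect; inhibitors lower the polarisation; unlabelled MLL peptide was the positive control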
# TRPML1 inh – blocks the human TRPML1 channel | activity change, negative = inhibition, % (test concentration not listed) | 390,000 tested, 0.02% active | TRPML1-inducible cells, Ca2+ dye fluorescence, FDSS; stronger effect = lower value; inhibition of EC80 agonist-evoked calcium signal; in the data active means activity change below about -50%; inconclusive means about -30% to -50%; inactive means above about -30%;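 note: stimulus is agonist 54-4 at its EC80 concentration; % is set by controls: 0 for no effect and ±100 for the full control effect; compound concentration not given in the record; the text of the record puts the active cut at -80%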
#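 Tet-induced TRPML1-DL cells loaded with Ca8 no-wash calcium dye were read kinetically on FDSS. Compound addition was followed by EC80 agonist 54-4 (4 uM final); inhibition was read over 110 s.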
# * hit, by the source's call; ? = inconclusive; . = not tested or not shown; & = joins results of further samples; [ ] = remark or other dose.
SMILES,gsp ag,gsp antag,ClpP mod,TRPML1 agonist,Menin-MLL FL inh,TRPML1 inh
Cc1nn(-c2ccccc2)c(N2CCCC2)c1/C=N/NC(=S)Nc1ccccc1C(F)(F)F,11.2%[15.4 µM],?,-25.0%,1.0,-0.7,5.3
Cc1cc(=O)[nH]c(SCC(=O)Nc2ccc(C)c(S(=O)(=O)N3CCCCC3)c2)n1,7.4%[15.4 µM],-8.4%,.,1.2,6.5,12.6
CCCCc1nc2sc3c(c2c(=O)[nH]1)CC(C)(C)OC3,18.4%,2.1%,-1.4%,1.3,.,12.3
COC(=O)/C=C1/SC(=Nc2ccc(C)cc2C)NC1=O,?,-9.6%,4.0%,2.8,-1.6,6.3
COc1cc(-c2nn3c(COc4ccccc4)nnc3s2)cc(OC)c1OC,1.3%,12.4%,-14.6%,-0.5,0.9,-2.0
O=C(NCC1CCCO1)C1c2ccccc2C(=O)N1Cc1ccc2c(c1)OCO2 (configuration not stated),6.4%,1.3%,22.4µM*,-0.2,3.3,-2.1
CCc1ccc(NS(=O)(=O)c2ccc3c(c2)CCN3C(=O)CCC(=O)O)cc1,4.7%[15.4 µM],7.5%,.,0.2,-0.1,-8.7
Cc1ccc(-c2csc3ncn(CC(=O)N4CCOCC4)c(=O)c23)cc1,7.4%,-14.8%,4.0%,-0.2,-0.4,9.2
CCCn1c(=O)c(C(=O)c2ccccc2)nc2ccccc21,7.8%,-12.2%,-2.1%,0.9,1.6,-6.8
O=C(CNCc1ccccc1)NC1C2CC3CC(C2)CC1C3 (configuration not stated),8.4%[15.4 µM],2.0%,1.1%,1.1,-2.8,16.7
COc1ccc(CNC(=O)c2ccc(CS(=O)(=O)c3ccc(Br)cc3)o2)cc1,1.3%,0.7%,1.5%&1.7%,-0.1&-0.1,-1.4,-3.2&-0.9
COc1ccc(Cl)cc1NC(=O)C[n+]1ccccc1,21.1%[15.4 µM],7.4%,-0.7%,0.7,0.7,-17.0
COc1ccc(C(=O)Nc2cc3c4c(c2)C(C)C(=O)N4CCC3)c(OC)c1 (configuration not stated),-3.2%[15.4 µM],-5.4%,.,0.6,.,-10.5
COc1ccc(S(=O)(=O)c2cn(C)c3cc(N4CCCCCC4)c(F)cc3c2=O)cc1,.,.,-8.6%,-0.7,.,-10.6
Cc1ccc(NC2CCCN(C(=O)c3cn4cccc(C)c4n3)C2)cc1C (configuration not stated),-49.1%[inhibitor],-7.0%,0.8%,1.3,.,-5.1
CCOC(=O)c1ccc(NC(=O)c2cc3sccc3n2Cc2ccc(Cl)cc2)cc1,.,.,4.1%,0.4,.,5.4
CCOC(=O)c1nn(-c2ccccc2)c(C)c1C(C)=O,-51.0%[inhibitor],7.0%,0.7%,0.8,4.4,8.3
CC1=CS(=O)(=O)CC1Sc1nc(C)n[nH]1 (configuration not stated),?,-14.1%,-2.6%,0.6,-0.1,-12.7
CC(C)C(=O)Nc1nnc(S(=O)(=O)N2c3ccccc3CC2C)s1 (configuration not stated),?,8.3%,-0.3%&-1.8%,7.9&3.4,-0.4,-1.2&13.7
CC(C)(C)c1ccc(C2CC2C(=O)N/N=C\c2cc3ccccc3nc2Cl)cc1 (configuration not stated),-13.3%,8.0%,-4.3%,-0.6,4.0,13.2
Nc1cc(-c2nc3ncccc3o2)ccc1Cl,3.4%,3.4%,-25.2%,-0.7,4.8,1.3
CS(=O)(=O)N1CCC(C(=O)Nc2ccccc2Br)CC1,-26.5%,1.7%,-2.5%,.,-0.7,.
COc1ccc(CN(CC(=O)NC2CCCC2)C(=O)CCC(=O)Nc2cc(C)on2)cc1,7.9%,3.6%,-2.0%,-1.2,-0.3,-12.9
CC(=O)Nc1ccc(S(=O)(=O)NCCc2ccc(S(N)(=O)=O)cc2)cc1,5.7%,7.3%,-1.8%,-0.1,-1.6,-13.6
O=c1c(N2CCCCC2)csc2ccc(F)cc12,.,.,?,-0.3,.,-27.3
CSc1cc(CS(=O)(=O)c2ccccc2)nc(-c2ccccc2)n1,25.2%,-6.3%,1.6%,3.5,.,64.0
CCOC(=O)c1ccc(N2C(=O)c3n[nH]c(-c4cccs4)c3C2c2cccc(F)c2)cc1 (configuration not stated),.,.,-1.2%,0.3,.,12.0
O=C1NC2(CCCC2)N=C1c1ccc(Cl)cc1,15.0%,9.9%,-0.3%,-0.7,0.3,-4.1
Cc1cc(=O)n2[nH]c(Nc3cccc(Cl)c3)nc2n1,-24.4%,4.1%,-2.7%,-0.9,.,65.2
COc1cc2c(C(=O)N3CCN(c4cccc(Cl)c4)CC3)cn(CC(C)C)c(=O)c2cc1OC,29.1%,14.6%,0.2%,3.3,0.2,0.4
COc1ccc(NC(=S)NC(=O)Cc2ccccc2)c(OC)c1,0.9%,-20.8%,.,3.0,2.0,-0.5
O=C(O)CSc1nnc(-c2ccco2)o1,-38.1%,-6.4%,-1.0%,1.4,0.9,14.4
Clc1ccc(CSc2ccc(-c3ccco3)nn2)cc1,0.1%[15.4 µM],9.5%,.,0.6,-2.9,-4.8
CN(C(=O)c1ccc(NC(=O)Cc2ccc(NC(=O)C3CCCN(C(=O)CCc4ccccc4)C3)cc2)cc1)C1CC1 (configuration not stated),-28.0%,-2.6%,-3.3%,0.0,.,-9.2
N#CCCN1CCNCC1,-6.0%,4.3%,0.2%,-0.1,-2.8,3.7
O=C(NNc1nc2c(F)cccc2s1)c1cc(=O)c2ccccc2o1,-46.3%[inhibitor],?,0.7%,-0.7,15.9,-2.7
COc1ccc(C(=O)COC(=O)C2COc3ccccc3O2)c(OC)c1 (configuration not stated),6.8%,.,0.3%,-0.5,.,17.1
OC(CN1C2=NCCN2c2ccccc21)c1ccc(Br)cc1 (configuration not stated),26.8%,7.7%,0.1%,1.8,2.7,-7.8
COC(=O)c1cc2oc3ccccc3c2n1Cc1cc(C)ccc1C,.,.,-11.8%,-0.1,.,-3.9
Cc1ccc(S(=O)(=O)Nc2ccc3nc(-c4ccc(F)cc4)oc3c2)cc1,.,.,-16.4%,4.6,.,9.6
CC(=O)OCC1OC(Sc2cccc3cccnc23)C(OC(C)=O)C(OC(C)=O)C1OC(C)=O (configuration not stated),20.7%,-7.4%,15.8µM*,-0.5,1.4,31.6
CC1COCC(C)N1C(=O)c1cccnc1 (configuration not stated),14.4%,.,1.3%,-0.6,.,-3.9
COc1cccc(/C=N/NC(=O)Cn2cnc3c2c(=O)n(C)c(=O)n3C)c1,18.7%[15.4 µM],9.4%,-0.1%,-0.3,-1.3,-3.8
CCOc1cc2[nH]c(=S)n(CCc3ccc(OC)c(OC)c3)c(=O)c2cc1OCC,8.1%,-5.2%,-1.4%,-0.1,-0.5,0.3
Cc1cc2cc(CCNC(=O)CCc3ccccc3)c(=O)[nH]c2cc1C,-7.0%,-3.0%,-25.5%,-1.0,5.6,4.9
CC(=O)c1cccc(NC(=O)CN2C(=O)CCc3cc(S(=O)(=O)N4CCCCC4)ccc32)c1,.,.,-3.4%,0.8,.,-14.6
O=C(NC(=S)N1CCCCC1)c1cccnc1,-15.2%,-5.4%,-1.0%,-0.3,3.8,-1.8
c1ccc(SSc2ccccc2)cc1,.,8.3%,-1.2%,-0.4,0.1,-5.6
O=C(CSc1nnc2scc(-c3ccccc3)n12)c1ccc2c(c1)OCCO2,-16.7%,4.9%,-2.0%,1.1,2.6,10.9
O=C1c2ccccc2CCC12N=NCC2c1ccccc1 (configuration not stated),-20.8%,-6.6%,-2.7%,1.1,0.9,-8.1
CC(=O)c1c(C)[nH]c(C(=O)COc2ccc3ccc(=O)oc3c2)c1C,3.1%,?,31.6µM*,-0.4,.,-7.6
Cc1ccc(CCNC(=O)C2CCCN(S(=O)(=O)c3c(C)noc3/C=C/N(C)C)C2)cc1 (configuration not stated),44.2%,-17.7%,-2.3%,3.5,1.1,-0.5
COc1ccc(CCNc2ccc(N3C(=O)CC(C)C3=O)cc2[N+](=O)[O-])cc1 (configuration not stated),-17.5%,-8.3%,.,0.2,-2.3,9.1
Cc1ccc(C)c(N2CCN(C(=O)Cc3c(C(=O)O)c(C)cn3C)CC2)c1,.,.,-0.1%,-0.8,.,-1.5
CCOc1ccccc1-c1nc(CN2CCN(C(=O)c3ccco3)CC2)c(C)o1,15.7%,7.8%,-6.1%,-1.4,0.3,-4.8
Cc1ccc(S(=O)(=O)Nc2c(O)ccc3ccccc23)cc1,-9.4%,0.5%,.,1.6,.,7.0
Cc1ccc(C(C(=O)NC2CCCC2)N(Cc2ccc3c(c2)OCO3)C(=O)c2snc(C(N)=O)c2N)cc1 (configuration not stated),1.9%,-0.8%,4.4%,1.5,-0.2,63.7
COc1ccc(NC(=O)CCNS(=O)(=O)c2cc(Br)cnc2N)c(OC)c1,0.7%,-4.7%,-10.2%,-0.5,.,-5.6
Cc1cc(C)n2nc(C(=O)N/N=C/c3ccccc3C)nc2n1,-33.8%[inhibitor],?,1.1%,0.1,-0.7,5.4
COCCNC(=O)CN1CCC(NC(=O)c2ccco2)CC1,-10.2%[15.4 µM],7.8%,.,-0.5,-3.5,16.2
# The list continues.
SMILES,gsp ag,gsp antag,ClpP mod,TRPML1 agonist,Menin-MLL FL inh,TRPML1 inh
C[C@H](CO)N1C[C@H](C)[C@@H](CN(C)S(=O)(=O)c2ccccc2)Oc2ccc(NS(=O)(=O)c3cccs3)cc2C1=O,.,-6.6%,-0.8%,0.5,.,29.1
Cc1sc2nc3ccc(N4CCCC4)nn3c(=O)c2c1C,?,-10.0%,-27.7%,-0.8,-2.8,-3.6
Cc1cccc(C)c1NC(=O)COC(=O)Cc1ccsc1,0.7%,6.2%,-1.3%,-0.4,0.0,14.2
COc1ccc(NC2CCCN(C(=O)CCCn3cncn3)C2)cc1OC (configuration not stated),-11.5%,-6.0%,.,-0.4,1.4,-9.0
CSc1ccccc1NC(=O)CN1c2ccccc2CC1C (configuration not stated),-71.6%[inhibitor],-2.0%,-6.4%,3.9,1.8,8.4
CCOC(=O)c1c(C)oc2nc(C)nc(NCc3ccc(F)cc3)c12,.,.,0.6%,-0.1,.,-13.6
CCOC(=O)c1ccc(NC(=O)C2CCCN(c3ncnc4onc(C)c34)C2)cc1 (configuration not stated),.,.,0.4%,-0.5,.,-8.5
Cc1cccc(N2CC(c3nc4ccccc4[nH]3)CC2=O)c1 (configuration not stated),-0.5%,-0.8%,.,-0.2,-4.4,-9.9

# Individual results from the entries so far.
# COc1ccc(NC2CCCN(C(=O)CCCn3cncn3)C2)cc1OC (configuration not stated) in TRPML1 agonist = -0.4
# CSc1ccccc1NC(=O)CN1c2ccccc2CC1C (configuration not stated) in Menin-MLL FL inh = 1.8
# Cc1cccc(C)c1NC(=O)COC(=O)Cc1ccsc1 in gsp ag = 0.7%

# Source: PubChem (National Center for Advancing Translational Sciences (NCATS))
